High-throughput results from PubChem.
FGF22 binding = binders of recombinant human FGF22 by thermal shift; Q9HCT0; SYPRO orange fluorescence; percent of sucrose octasulfate shift, DMSO zero; calls only at 9.99 µM; 340,000 tested, 1.5% active; AID 651658;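 active = melting point raised past a set limit in the mean and every replicate; three in four hits are not shown here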
Target sequence (Q9HCT0 whole entry, looked up): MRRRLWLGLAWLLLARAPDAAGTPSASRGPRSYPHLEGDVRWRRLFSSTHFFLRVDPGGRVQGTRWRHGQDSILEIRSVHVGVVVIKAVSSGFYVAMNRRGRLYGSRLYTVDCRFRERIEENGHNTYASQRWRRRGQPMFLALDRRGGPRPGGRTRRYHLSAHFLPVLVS
AF4-AF9 inh = blocks AF4 peptide binding to human AF9. P42568. AlphaScreen, biotin-AF4 peptide binding to FLAG-AF9. inhibition, % at 10 µM. 350,000 tested, 0.47% active. AID 651704;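 active = every replicate reaching a set inhibition limit, whatever the replicate mean, cut at about 25% in these data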;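 note: 0% = plate neutral control median and 100% = total signal loss; the record names both 10 and 1 µM as test concentration; the first replicate is given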
Target sequence (P42568 whole entry, looked up): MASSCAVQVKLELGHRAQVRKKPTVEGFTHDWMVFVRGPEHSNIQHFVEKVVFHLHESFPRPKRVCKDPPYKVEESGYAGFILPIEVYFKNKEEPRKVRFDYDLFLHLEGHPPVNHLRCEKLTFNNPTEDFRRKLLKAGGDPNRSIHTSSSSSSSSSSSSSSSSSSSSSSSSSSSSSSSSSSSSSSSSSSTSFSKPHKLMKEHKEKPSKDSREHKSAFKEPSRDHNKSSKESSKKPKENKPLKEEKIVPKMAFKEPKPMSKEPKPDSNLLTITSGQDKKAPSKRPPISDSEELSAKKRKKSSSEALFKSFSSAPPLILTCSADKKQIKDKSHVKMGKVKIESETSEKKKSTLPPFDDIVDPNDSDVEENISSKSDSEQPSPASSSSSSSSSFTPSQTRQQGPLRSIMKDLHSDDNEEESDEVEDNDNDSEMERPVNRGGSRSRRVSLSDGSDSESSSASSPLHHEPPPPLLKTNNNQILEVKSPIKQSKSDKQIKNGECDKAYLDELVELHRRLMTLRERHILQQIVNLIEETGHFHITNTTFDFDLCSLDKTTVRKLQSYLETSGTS
Ecoli rRNA inh = inhibitors of bacterial rRNA selective over humanized ribosomes; E. coli WT GFP vs humanized-ribosome RFP mutants, fluorescence, 24 h; hits give low values; DMSO median 0, no signal -100; 350,000 tested, 1.6% active; GFP signal change (wild-type ribosome), % (no concentration beside the values); AID 720706;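 active = significant combined selectivity score with lowered wild-type GFP, culture density cut under 30%, mutant RFP and density less affected; inactive = any of these conditions unmet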; note: one replicate is shown; some compounds called inactive have numbers as strong as hits
Ecoli rRNA inh OD600 = also measured in Ecoli rRNA inh; calls as there; OD600 change, %; measured here: OD600 growth;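 optical density of the mix in the first replicate; 0 = DMSO median and -100 = no signal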
Ecoli rRNA inh RFP = also measured in Ecoli rRNA inh; calls as there; RFP signal change, %; measured here: RFP humanized mutant strains;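 first replicate; 0 = DMSO median and -100 = no signal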
An asterisk follows results filed as active; i = inactive; x = no result given; & = joins results of further samples. Only part of the results is shown; the hit share may differ from the screen's.

SMILES | FGF22 binding | AF4-AF9 inh | Ecoli rRNA inh | Ecoli rRNA inh OD600 | Ecoli rRNA inh RFP
C[C@@H]1CCCCO[C@@H](CN(C)Cc2ccc(Cl)c(Cl)c2)[C@H](C)CN([C@H](C)CO)C(=O)c2cc(NS(=O)(=O)c3cccs3)ccc2O1 | i | 3.7 | -2 | -16 | 9.6
Cc1ccc(NC(=O)c2ccc(-c3cc(Cl)ccc3Cl)o2)c(C)c1 | i | -1.2 | 12 | 16 | 0.6
Cc1nn(C)cc1CN(C)C(=O)C1CCC(=O)N(CCc2cccc(F)c2)C1 (centres undefined) | i | 0.5 | 21 | 17 | -0.6
Cc1ccc(S(=O)(=O)N[C@H]2CC[C@@H](CCNS(=O)(=O)Cc3ccccc3)O[C@H]2CO)cc1 | i | -1.2 | 0 | 6 | -2.6
CN(C)c1cccc(F)c1C(=O)NC(=O)Nc1ccc(Cl)cc1 | i | 0.1 | -5 | -39 | -0.3
C[C@@H]1CN([C@@H](C)CO)C(=O)c2cc(NC(=O)NC3CCCCC3)ccc2O[C@H]1CN(C)S(=O)(=O)c1cn(C)cn1 | i | -4.8 | 2 | 4 | -1.6
O=C(C[C@H]1C[C@H]2c3cc(NC(=O)CC4CC4)ccc3O[C@H]2[C@@H](CO)O1)NCc1ccc2c(c1)OCO2 | i | -3.3 | 4 | 11 | -3.6
Cc1noc(C)c1NC(=O)Nc1ccc2c(c1)CC(=O)N([C@H](C)CO)C[C@@H](C)[C@H](CN(C)Cc1ccc3c(c1)OCO3)O2 | i | 0.3 | 1 | 4 | -1.8
C[C@@H]1CN([C@@H](C)CO)C(=O)CCCn2cc(nn2)CO[C@H]1CN(C)C(=O)Nc1cccc(Oc2ccccn2)c1 | i | 1.0&-2.6 | 1&7 | -2&6 | -0.6&-0.4
Cc1ccc(S(=O)(=O)Nc2ccc3c(c2)C(=O)N([C@@H](C)CO)C[C@H](C)[C@@H](CN(C)CC2CCCCC2)OCCCC[C@H](C)O3)cc1 | i | 17 | -24 | -54 | 9.8
C[C@H]1CN([C@@H](C)CO)C(=O)c2cccc(NC(=O)Nc3ccc(F)cc3)c2O[C@H]1CN(C)S(=O)(=O)c1ccc(F)cc1 | i | 1.5 | 1 | 1 | 1.6
Cc1ccccc1S(=O)(=O)N1C[C@H](O)COC[C@H]2O[C@@H](CC(=O)N3CCN(C)CC3)CC[C@@H]21 | i | -0.4 | 0 | -7 | -2.7
COCCNc1ncnc2c1ncn2[C@H]1CN(Cc2ccc3c(c2)OCO3)C[C@@H](CO)O1 | i | -2.5 | 10 | 21 | 0.5
CNC[C@@H]1Oc2c(NC(=O)Nc3ccccc3)cccc2C(=O)N([C@H](C)CO)C[C@H]1C | i | -0.9 | 1 | 0 | 2.6
COc1ccccc1-c1ccc2n(c1=O)C[C@@H]1[C@@H](CO)[C@H](C(=O)NCCCN(C)C)N(C(C)=O)[C@H]21 | i | -1.8 | 4 | 11 | -2.9
Cc1[nH]nc2c1C(c1ccc(Br)cc1)NC2=O (centres undefined) | x | -2.0 | 13 | 6 | 2.6
Cc1ccccc1-c1ccc2c(c1)O[C@@H](CN(C)C(=O)Nc1ccc(F)cc1)[C@@H](C)CN([C@@H](C)CO)S2(=O)=O | i | 0.7 | 1 | 0 | 0.7
Cc1noc(C)c1S(=O)(=O)Nc1cccc2c1O[C@H](CN(C)CC1CCCCC1)[C@H](C)CN([C@H](C)CO)C2=O | i | -2.9 | 2 | 0 | -1.7
O=C(C[C@H]1CC[C@H]2[C@@H](COC[C@@H](O)CN2C(=O)Nc2ccccc2)O1)NCCc1ccncc1 | i | -0.2 | 3 | 10 | -2.4
CN1c2ccc(-c3cccc(C#N)c3)cc2[C@@H]2[C@@H](CCN2C(=O)Cc2ccccn2)[C@@H]1CO | i | 1.0 | 4 | 7 | 8.3
CS(=O)(=O)N1CCCCN2[C@@H](CO)[C@@H](c3ccc(-c4cccc(C#N)c4)cc3)[C@@H]2C1 | i | -6.9 | 1 | -2 | -0.9
CC1=C(C#N)C(C)(C)C(C#N)=C(C)N1 | i | -0.7 | -3 | -18 | -1.2
CCNC(=O)C[C@H]1CC[C@H](NC(=O)C2CCOCC2)[C@@H](CO)O1 | i | 2.0 | 1 | 3 | -1.8
CO[C@@H]1CN(C)C(=O)c2ccc(NC(=O)c3ccccc3F)cc2OC[C@H](C)N(C(=O)c2ccccc2F)C[C@H]1C | i | 2.3 | -2 | -3 | -1.6
C[C@@H]1CN([C@H](C)CO)C(=O)c2cccc(NC(=O)Nc3ccc(F)cc3)c2O[C@H]1CN(C)Cc1ccc(C(=O)Nc2ccccc2N)cc1 | i | -0.9 | 1 | -9 | 0.0
CCCc1nc2c(C)cc(Br)cn2c1Cc1cccc(Cl)c1 | i | -1.8 | -18 | -54 | 6.6
COCCCN1C(=O)C(CC(=O)NCc2cccc3ccccc23)CC(C(=O)N(C(C)C)C(C)C)=C1C (centres undefined) | i | 0.5 | -8 | -9 | 0.5
C/C=C/c1ccc2c(c1)O[C@H](CN(C)C(=O)NC(C)C)[C@H](C)CN([C@@H](C)CO)S2(=O)=O | i | -0.7 | 2 | -3 | -0.1
CC(=O)C1=CCC(c2ccc(Br)cc2)N(S(=O)(=O)c2ccc(C)cc2)C1 (centres undefined) | i | -0.9 | -5 | -7 | -1.8
C[C@H](CO)N1C[C@H](C)[C@@H](CN(C)S(=O)(=O)c2cn(C)cn2)Oc2ccc(N(C)C)cc2C1=O | i | -2.9 | 2 | 8 | -0.9
O=C(C[C@H]1CC[C@H](NC(=O)C2CCC2)[C@@H](CO)O1)NCC1CC1 | i | 0.0 | 0 | 3 | -3.3
C[C@H](CO)N1C[C@H](C)[C@H](CN(C)C(=O)NC2CCCCC2)Oc2c(NC(=O)C3CC3)cccc2C1=O | i | -3.3 | -1 | 10 | -4.5
COc1ccc(C(C)(O)c2nc(-c3cccc(C(F)(F)F)c3)cs2)cc1 (centres undefined) | i | -1.7 | -46 | -78 | -11
C[C@H](CO)N1C[C@H](C)[C@H](CN(C)C(=O)C2CCC2)Oc2cc(C#C[C@@H](C)O)ccc2S1(=O)=O | i | -0.7 | -2 | -1 | 0.7
COC(=O)c1ccccc1COc1cccn2c(N(C)C(=O)CCC3CCCC3)c(C)nc12 | i | -7.7 | -16 | -29 | 5.4
C[C@@H]1CN([C@H](C)CO)C(=O)Cc2cc(NC(=O)Nc3ccccc3)ccc2O[C@@H]1CN(C)C | i | -1.7 | 10 | 11 | -1.5
C[C@H](CO)N1C[C@H](C)[C@@H](CN(C)Cc2ccc(Cl)c(Cl)c2)Oc2ccc(NC(=O)c3ccncc3)cc2C1=O | i | -0.4 | -5 | -25 | -1.9
COc1ccc(NC(=O)N(C)C[C@H]2Oc3c(NC(=O)CCCCCC(=O)Nc4ccccc4N)cccc3C(=O)N([C@@H](C)CO)C[C@H]2C)cc1 | i | 0.7 | 2 | 1 | 2.7
C[C@@H]1CCCCO[C@H](CN(C)S(=O)(=O)c2cn(C)cn2)[C@@H](C)CN([C@@H](C)CO)C(=O)c2cc(NC(=O)CCCN(C)C)ccc2O1 | i | -0.3 | 4 | 2 | -5.9
C/C=C/c1ccc2c(c1)O[C@H](CN(C)C(=O)C1CCCCC1)[C@H](C)CN([C@H](C)CO)S2(=O)=O | i | 7.8 | -3 | -14 | 3.4
CCS(=O)(=O)Nc1ccc2c(c1)C(=O)N(C)C[C@H](OC)[C@H](C)CN(C(=O)NC(C)C)[C@@H](C)CO2 | i | -1.7 | 1 | 6 | -0.1
C[C@H](CO)N1C[C@H](C)[C@@H](CN(C)Cc2ccc(C(=O)Nc3ccccc3N)cc2)Oc2c(NC(=O)Nc3ccc4c(c3)OCO4)cccc2C1=O | i | 2.7 | -6 | -8 | -2.4
Cc1ccc(S(=O)(=O)N2CC3(O)CN(C(=O)OC(C)C)N(C(=O)OC(C)C)CC3(OC(=O)Nc3cccs3)C2)cc1 (centres undefined) | i | 4.9 | 2 | 0 | 0.6
CO[C@@H]1CC[C@H]2CCN(C)C(=O)[C@@H](C)N(C)C(=O)c3cccc(C#N)c3OC[C@H]1O2 | i | 2.7 | 3 | 9 | 0.5
Cc1noc(C)c1S(=O)(=O)Nc1ccc2c(c1)C(=O)N([C@H](C)CO)C[C@@H](C)[C@H](CN(C)Cc1ccc(C(F)(F)F)cc1)OCCCC[C@H](C)O2 | i | 2.8 | -8 | -44 | 39
COc1ccc(CN2C(=O)C(CC(=O)NCCc3ccccn3)CC(C(=O)N3CCOCC3)=C2C)cc1 (centres undefined) | i | -6.0 | 7 | 13 | 3.1
Cc1cc(C(=O)Nc2cccc3c2O[C@H](CN(C)C(=O)NC(C)C)[C@@H](C)CN([C@H](C)CO)C3=O)n(C)n1 | i | -2.4 | 1 | 2 | 2.3
CCCN(C)C[C@@H]1Oc2cc(C#CCN(C)C)ccc2S(=O)(=O)N([C@H](C)CO)C[C@@H]1C | i | 9.9 | 8 | 11 | -3.7

Full records as entered above.
Record of COc1ccc(NC(=O)N(C)C[C@H]2Oc3c(NC(=O)CCCCCC(=O)Nc4ccccc4N)cccc3C(=O)N([C@@H](C)CO)C[C@H]2C)cc1 → FGF22 binding = i; AF4-AF9 inh = 0.7; Ecoli rRNA inh = 2; Ecoli rRNA inh OD600 = 1; Ecoli rRNA inh RFP = 2.7
Record of C[C@H](CO)N1C[C@H](C)[C@@H](CN(C)Cc2ccc(C(=O)Nc3ccccc3N)cc2)Oc2c(NC(=O)Nc3ccc4c(c3)OCO4)cccc2C1=O → FGF22 binding = i; AF4-AF9 inh = 2.7; Ecoli rRNA inh = -6; Ecoli rRNA inh OD600 = -8; Ecoli rRNA inh RFP = -2.4

Following part
SMILES | FGF22 binding | AF4-AF9 inh | Ecoli rRNA inh | Ecoli rRNA inh OD600 | Ecoli rRNA inh RFP
CC(OC(=O)c1ccc(S(C)(=O)=O)c([N+](=O)[O-])c1)C(=O)NC1C2CC3CC(C2)CC1C3 (centres undefined) | i | -3.6 | 13 | 11 | 2.3
O=C(C[C@@H]1CC[C@@H]2[C@H](COC[C@@H](O)CN2C(=O)c2cnccn2)O1)NCc1ccc(Cl)cc1 | i | -3.4 | -1 | 3 | -0.6
COC(=O)CCCn1cc(CN2CC(N3CCN(C4CCN(C)CC4)CC3)CS2(=O)=O)nn1 (centres undefined) | i | -6.2 | 19 | 7 | 2.3
CO[C@H]1CN(C)C(=O)c2ccc(NC(C)=O)cc2OC[C@@H](C)N(C(=O)Cc2ccccn2)C[C@@H]1C | i | 0.4 | 0 | -6 | -0.8
CCCNC(=O)C1(C)CCN(CCC(=O)c2ccc(Br)cc2)C1 (centres undefined) | i | -3.5 | -2 | 1 | 6.2
CCCNC(=O)Nc1ccc2c(c1)OC[C@@H](C)N(Cc1ccc(-c3ccccn3)cc1)C[C@H](C)[C@@H](OC)CN(C)C2=O | i | -1.1 | -2 | -6 | 0.3
COc1ccc(S(=O)(=O)N(C)C[C@H]2Oc3c(NC(=O)c4ccc(-c5nccs5)cc4)cccc3C(=O)N([C@H](C)CO)C[C@@H]2C)cc1 | i | -0.6 | 0 | -1 | -0.4
COc1cccc(CNc2nc(NCC3CC3)nc3ccsc23)c1OC | i | 5.4 | -21 | -39 | -13
C[C@H]1CN([C@@H](C)CO)C(=O)CCCn2nncc2CO[C@@H]1CN(C)C(=O)Nc1ccc(-c2cccs2)cc1 | i | 4.3 | -3 | -6 | -0.1
Cc1noc(C)c1NC(=O)N(C)C[C@@H]1Oc2ccc(NS(=O)(=O)c3cn(C)cn3)cc2CC(=O)N([C@@H](C)CO)C[C@H]1C | i | -6.8 | 5 | 11 | -0.9
CCOC(=O)C1=NOC2(C1)C(=O)Nc1ccc(OC(F)(F)F)cc12 (centres undefined) | i | -2.9 | 3 | 18 | -0.2
CCOC(=O)C1=C[C@@H](c2ccccc2)N(S(=O)(=O)c2ccc(C)cc2)[C@H]1c1ccccc1Cl | i | -1.1 | 6 | 12 | -2.7
C[C@@H]1CN([C@H](C)CO)C(=O)Cc2cc(N(C)C)ccc2O[C@H]1CN(C)S(=O)(=O)c1ccc(Cl)cc1 | i | 1.1 | 2 | -1 | -0.4
C[C@@H]1CN([C@H](C)CO)C(=O)c2cc(NS(=O)(=O)c3ccc(F)cc3)ccc2O[C@H]1CN(C)Cc1ccc(Oc2ccccc2)cc1 | i | 4.1 | -4 | -20 | 3.8
COc1ccc(S(=O)(=O)N(C)C[C@@H]2Oc3c(NC(=O)NC(C)C)cccc3C(=O)N([C@@H](C)CO)C[C@H]2C)cc1 | i | -1.3 | -5 | -3 | -0.3

Reformatted as tab-separated lines: entries from further up
SMILES	FGF22 binding	AF4-AF9 inh	Ecoli rRNA inh	Ecoli rRNA inh OD600	Ecoli rRNA inh RFP
CO[C@@H]1CN(C)C(=O)c2ccc(NC(=O)c3ccccc3F)cc2OC[C@H](C)N(C(=O)c2ccccc2F)C[C@H]1C	i	2.3	-2	-3	-1.6
C[C@@H]1CN([C@H](C)CO)C(=O)c2cccc(NC(=O)Nc3ccc(F)cc3)c2O[C@H]1CN(C)Cc1ccc(C(=O)Nc2ccccc2N)cc1	i	-0.9	1	-9	0.0
CCCc1nc2c(C)cc(Br)cn2c1Cc1cccc(Cl)c1	i	-1.8	-18	-54	6.6
COCCCN1C(=O)C(CC(=O)NCc2cccc3ccccc23)CC(C(=O)N(C(C)C)C(C)C)=C1C (centres undefined)	i	0.5	-8	-9	0.5
